# Source: PubChem
# VDR inhibitor: vitamin D3 receptor (human) inhibition. P11473. VDR-SRC2-3 peptide fluorescence polarization, 2 h. Potency, µM, for the others: max response, negative = inhibition, most hits filed as inhibitors. 400,000 compounds, 0.93% hits; active = well fitted inhibition curve with a large enough effect; inconclusive = small, poorly fitted or top-dose-only effect, or another doubt; inactive = no such curve, though single readings can be large or run the other way; note: series mostly up to about 120 µM
# Target sequence (P11473 whole entry, looked up): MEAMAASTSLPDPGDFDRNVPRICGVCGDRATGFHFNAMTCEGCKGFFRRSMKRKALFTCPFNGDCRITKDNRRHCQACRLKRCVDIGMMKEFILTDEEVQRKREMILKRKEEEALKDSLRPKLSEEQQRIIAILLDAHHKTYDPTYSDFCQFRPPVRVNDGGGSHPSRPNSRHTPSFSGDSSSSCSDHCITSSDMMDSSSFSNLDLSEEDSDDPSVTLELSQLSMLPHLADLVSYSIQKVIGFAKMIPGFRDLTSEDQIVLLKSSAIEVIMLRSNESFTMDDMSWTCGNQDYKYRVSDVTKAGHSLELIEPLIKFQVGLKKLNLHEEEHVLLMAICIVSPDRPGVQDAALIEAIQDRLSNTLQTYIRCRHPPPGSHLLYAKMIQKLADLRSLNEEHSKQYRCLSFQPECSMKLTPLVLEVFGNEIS
#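 The screen uses fluorescence polarization to detect compounds that interfere with recruitment of the SRC2-3 coactivator peptide to VDR; plates are read after 2 h at room temperature.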
# The depositor's hits bear a star; ? = inconclusive; & = joins results of further samples. % is set by controls: 0 for no effect and ±100 for the full control effect; potency is the fitted concentration of half-maximal effect. These rows are one share of the data, so the mix of outcomes need not match the whole.
SMILES,VDR inhibitor
COc1ccccc1NC(=O)NCCC1=CCCCC1,?
COc1ccc(C(=O)N2CCC(C(=O)O)CC2)c2ccccc12,-4%
O=C(NCC(c1cccs1)N1CCOCC1)c1cccc(S(=O)(=O)Nc2ccc(F)cc2)c1 (stereo unspecified),2%
CCCN1C(=O)/C(=C2\SC(N3CCCCC3)=NC2=O)c2ccccc21,-10%
CNC(=O)COC(=O)c1ccc(Cl)c(S(N)(=O)=O)c1,-22%
COCCNC(=O)c1ccc2nc(Cc3ccc(OC)c(OC)c3)oc2c1,4%
CCn1c(C)cs/c1=N\C(=S)Nc1ccccc1C,-9%
COc1ccc(N2CCN(C(=O)CCCn3nnnc3CN3CCOCC3)C(C)C2)cc1 (stereo unspecified),-4%
CSc1ccc(/C=C/c2cc(=O)c3ccccc3[nH]2)cc1,-13%
Cc1ccc(S(=O)(=O)CCC(=O)OCC(=O)N2c3ccccc3CC2C)cc1 (stereo unspecified),0%
NC(=O)CNC(=O)[C@@H]1CC2(CC(c3cccc(Br)c3)=NO2)CN1C(=O)c1ccc(Br)cc1 (stereo partly specified),-7%
OCCNc1c2ccccc2nc2ccccc12,-16%
Cc1cccc(N(CC(=O)NCC2CCCO2)C(=O)CNS(=O)(=O)c2ccc(Cl)cc2)c1 (stereo unspecified),-14%
CC1(C)C=C(c2ccc(C=O)s2)CC(C)(C)N1C=O,-5%
CCn1c(SCC(=O)Nc2ccc(S(=O)(=O)Nc3onc(C)c3C)cc2)nnc1-c1ccccc1,8%
Cc1cccc(C(=O)NCCC(=O)Nc2ccc(C#N)cc2)c1,-8%
N=C(N)SCCN,13%&-1%&7%
COc1ccc(S(=O)(=O)N2CCN(c3ccccn3)CC2)c(OC)c1,3%
O=C(c1cc2cc(F)ccc2[nH]1)N1CCN(C(=O)c2ccco2)CC1,-7%
Cc1ccccc1-n1c(-c2ccc3ccccc3n2)n[nH]c1=S,-13%

# Quoted from the listing:
# In VDR inhibitor, `CCn1c(SCC(=O)Nc2ccc(S(=O)(=O)Nc3onc(C)c3C)cc2)nnc1-c1ccccc1` shows 8%
# In VDR inhibitor, `COc1ccc(S(=O)(=O)N2CCN(c3ccccn3)CC2)c(OC)c1` shows 3%
# In VDR inhibitor, `CSc1ccc(/C=C/c2cc(=O)c3ccccc3[nH]2)cc1` shows -13%
# In VDR inhibitor, `Cc1cccc(N(CC(=O)NCC2CCCO2)C(=O)CNS(=O)(=O)c2ccc(Cl)cc2)c1` (stereo unspecified) shows -14%

# Following part
SMILES,VDR inhibitor
Cc1oc(-c2ccccc2)nc1CS(=O)CC(=O)N1CCc2ccccc2C1 (stereo unspecified),-19%
CCOC(=O)/C(N=Nc1c(C)n(C)n(-c2ccccc2)c1=O)=C(/O)c1ccccc1,14%
Cc1ccccc1C(=O)N=c1ccn(-c2nc3ccccc3nc2NS(=O)(=O)c2ccc(F)cc2)cc1,-4%
C/C(=N\NS(=O)(=O)c1ccc(Br)cc1)c1ccncc1,?
COc1ccc(-c2[nH]nc3c2C(c2ccoc2)C(C#N)=C(N)O3)cc1 (stereo unspecified),-1%
CCOc1ncccc1C(=O)Nc1cccc(C(=O)Nc2cccc(S(=O)(=O)CCO)c2)c1,3%
COc1cccc(N2CCN(C(=O)c3cc4cc5cc(C)ccc5nc4s3)CC2)c1,8%
COc1cccc(CC(=O)Nc2cc(S(=O)(=O)N3CCOCC3)ccc2OC)c1,14%
Cc1ccc(-c2nc3ncccc3o2)cc1NC(=O)COc1ccccc1,-13%
COCCNC(=O)c1ccccc1NC(=O)CSc1ccc(C)cc1,-1%
Cc1ccc2nc(SCC(=O)NCc3ccco3)c(C#N)cc2c1,-9%
COc1ccc(N(C(=O)c2cnccn2)C(C(=O)NC2CCCCC2)c2ccccc2)cc1 (stereo unspecified),12%
O=[N+]([O-])c1ccc(/C=N/Nc2ccnc3cc(Cl)ccc23)o1,10%
Cc1onc(-c2ccccc2)c1C1=N/C(=C\c2ccccc2F)C(=O)O1,-6%
O=C(NCCc1c[nH]c2ccccc12)Nc1ccccc1C(F)(F)F,13%
O=C(c1ccco1)N1CCN(C(c2ccccc2F)c2nnnn2CC2CCCO2)CC1 (stereo unspecified),2%
O=C(CSc1nnc(-c2ccccc2O)o1)Oc1ccc(OCc2ccccc2)cc1,4%
Cc1cc(N2CCOCC2)nc(SCC(=O)c2ccccc2)n1,-8%
COc1ccc(N2CCN(S(=O)(=O)CCNC(=O)Cc3ccc(Cl)cc3)CC2)cc1,14%
CC1(C)Cc2c(cnn2-c2ccccc2)C(=O)/C1=N\NC(=O)c1ccncc1,25%
CCN1C(=O)N[C@@H](CCc2ccccc2)[C@@H](C(=O)OC)[C@H]1C,-8%
Cc1cc(C(=O)N2CCC(Cc3ccccc3)CC2)ccc1[N+](=O)[O-],-15%
COc1cccc(NC(=O)NCc2ccccn2)c1,-12%
Cc1cc2nc(SCCOC(=O)Nc3cccc(Cl)c3)nc(C)c2cc1C,1%
CC(=O)Nc1ccc(-c2nc3ccccc3o2)cc1,15%
COc1cccc(/C=N/Nc2ccc([N+](=O)[O-])cn2)c1O,4%
Cc1ccc(C(=O)C(OC(=O)CNC(=O)COc2ccccc2C)c2ccccc2)cc1 (stereo unspecified),-3%
CCNc1nc(NCC)n2c(SC(C(=O)Nc3cc(C)ccc3C)c3ccccc3)nnc2n1 (stereo unspecified),10%
CC1(C)c2ccccc2N2CCC(=O)NC21/C=C/c1ccco1 (stereo unspecified),14%
CCc1ccccc1N1CC(c2nc3ccccc3n2CC(C)C)CC1=O (stereo unspecified),5%
O=C(Nc1ccc2nccnc2c1)N1CCCCCC1,7%
Cc1ccc(S(=O)(=O)N(Cc2ccccc2Cl)C(=O)N2CCN(C)CC2)cc1,-7%
O=C(Nc1cccnc1)c1cccnc1,-7%
O=C(NCCc1ccc(Cl)cc1)c1cccc(N2CCCC2=O)c1,21%
COc1cccc(CNC(=O)CSC2=Nc3ccccc3N=C(c3ccc(F)cc3)C2)c1,7%
O=C(NC1CCSC1=O)c1ccc(Oc2ccc(F)cc2)nc1 (stereo unspecified),17%
COc1ccc(OC)c(N(CC(=O)NCc2ccncc2)S(C)(=O)=O)c1,-7%
CCCC(=O)Nc1nnc(SCc2cc(=O)c3ccc(C)cc3[nH]2)s1,15%
CCNc1ncc2nc(-c3cc(F)cc(F)c3)c(=O)n(Cc3ccc(F)cc3)c2n1,6%
COC(=O)Cc1cc(=O)n(-c2nc3ccccc3s2)[nH]1,-2%
O=C(CSc1cn[nH]n1)Nc1ccccc1C(=O)O,-7%
CCOC(=O)Cn1nnnc1CN(Cc1cccs1)Cc1cc2cc(C)ccc2[nH]c1=O,-4%
CC(Sc1nnc(-c2ccc(Cl)cc2Cl)n1Cc1ccccc1)C(=O)Nc1nccs1 (stereo unspecified),?
Cc1ccccc1NC(=O)Cc1nc(COC(=O)/C=C/c2ccccc2)cs1,13%
CC(C)(C)c1ccc(NC(=O)COC(=O)C2(C)CC2(Cl)Cl)cc1 (stereo unspecified),-3%
COc1ccc(-c2csc3nc(-c4ccc(F)cc4)oc(=O)c23)cc1,9%
CCc1ccc(C2CC(=O)c3c([nH]c(C(=O)OCCOc4ccccc4)c3C)C2)cc1 (stereo unspecified),-25%
O=C(NCCCNc1ccc(C(F)(F)F)cc1[N+](=O)[O-])c1ccc(F)cc1,-24%
Cn1ccnc1SCC(=O)Nc1cccc(O)c1,0%
CC(C)CN1CCC2(CC1)CCN(C(=O)c1cccn1C)CC2,3%
O=C(Cn1ncc2c3ccccc3n(Cc3ccccc3)c2c1=O)NCCN1CCOCC1,?
NS(=O)(=O)c1ccc(NC(=O)COc2ccc(C(=O)c3ccc(F)cc3)cc2)cc1,21%
Nc1nnc(SCC(=O)Nc2cccnc2Cl)s1,-7%
Cc1ccc(N2C(=O)C3CCC(c4ccccc4)CC3C2=O)cc1 (stereo unspecified),-10%
COc1ccc(NC(=O)CC2C(=O)N(c3ccc(OC)cc3)C(=O)N2CCN2CCN(C)CC2)cc1 (stereo unspecified),1%
COc1ccc(NC(=O)Cn2nnc(C(=O)NCc3ccccc3OC)c2N)cc1Cl,-7%
O=c1c2ccccc2nc(/C=C/c2ccc(O)cc2)n1CCc1ccccc1,-16%
CCOC(=O)N1CCN(C(=O)CC(C(=O)N2CCc3ccccc32)n2ccnc2)CC1 (stereo unspecified),-13%
Cc1c(-c2ccc(F)cc2)[n+](=O)c(-c2ccc(F)cc2)c(C)n1[O-],6%
CC(=O)Nc1nc2cc(C(N)=O)ccc2s1,-18%
# Other results
SMILES,VDR inhibitor
C=CCOC(=O)N[C@H](/C(C(=O)OC)=C(\C)NCc1ccccc1)c1ccc(C)cc1,-3%
COc1cc(/C=C2/NC(=O)N(c3cccc(Cl)c3)C2=O)ccc1O,11%
COc1cccc(OCC(=O)NNC(=O)Cc2cccs2)c1,-5%
CCCC(=O)Nc1cc(C)c(NC(=O)C23CC4CC(CC(C4)C2)C3)cn1,19%
CCOC(=O)c1cc(-c2ccccc2)n(-c2cccc(C(=O)NC(C)(C)C)c2)c1C,1%
O=[N+]([O-])c1cccnc1N1CCN(c2ccccc2F)CC1,-2%
O=C1OCCC1Sc1nnc(-c2ccc(O)cc2)o1 (stereo unspecified),11%
CC(C)(C)OC(=O)NC(Cc1ccccc1)C(=O)NCCCC(=O)O (stereo unspecified),3%
CCc1ccc(CNC(=O)CN(c2ccc(C)cc2)S(=O)(=O)N(C)C)cc1,5%
COc1ccc(Cl)cc1CC=NNC(=O)c1cccc(C)c1O,?
CC(CCc1ccc(O)cc1)N(C)CCc1ccccc1 (stereo unspecified),11%
CC(C)CCNC(=O)c1cccc(Cl)c1,-10%
COc1cccc(C(=O)O/N=C(\N)c2ccccn2)c1OC,?
CC(=O)Nc1ccc(S(=O)(=O)Nc2nc3ccccc3nc2Nc2ccc3ccccc3c2)cc1,4%
Cc1ccc(CNC(=O)C(=O)NCCCn2ccnc2)cc1,?
c1cc2c(cc1C1CCCCC1)c1c3n2CCN=C3CCC1,-9%
Cc1cc(-c2ccc(C)c(S(=O)(=O)NCCc3ccco3)c2)on1,-10%
COc1ccccc1CN1CC(C(=O)NCCn2ccc(C)n2)CCC1=O (stereo unspecified),-1%
COc1ccc(-c2csc(N(CCc3ccccc3)C(=O)COc3ccccc3)n2)cc1,-2%
Cc1cccc(Cc2c(C)nc3nc(SCC(=O)O)nn3c2C)c1,?
Cc1ccccc1CNC(=O)CC1C(=O)NCCN1Cc1c(F)cccc1Cl (stereo unspecified),-4%
CCN(c1ccccc1)S(=O)(=O)c1cc(C(=O)Nc2ccccc2Cl)ccc1F,-25%
Cc1cccc2cc3c(NC(=O)C(C)(C)C)nn(CC(C)C)c3nc12,-6%
O=C(c1cccs1)n1nc(-c2ccc(Cl)cc2)nc1NCc1ccco1,-1%
O=C(CN1CCCCCC1)Nc1ccccc1,0%
CC12CCC3c4cc(CN5CCOCC5)c(O)cc4CCC3C1CCC2=O (stereo unspecified),6%
COc1ccc(N2C(=O)c3cccc4c(N(C)CCO)ccc(c34)C2=O)cc1,0%
CCCOc1ccc(C(=O)NC(=S)Nc2nc3ccccc3s2)cc1,13%
NNC1=N[C@H]2CS(=O)(=O)C[C@H]2S1,7%
Nc1ncnc2c1[nH]c(=O)n2C1OC(CO)C(O)C1O (stereo unspecified),8%
O=C(CSc1ccc(-c2ccc3c(c2)OCO3)nn1)Nc1nccs1,?
Cc1ccc[n+](-c2[nH]c(=O)sc2/C=N/N=C(\[O-])CCn2c3ccccc3c3ccccc32)c1,-5%
COc1ccccc1OCC(=O)N/N=C1/C=C(C)CC1,-26%
O=C(COc1ccccc1)Nc1c2c(nn1-c1ccc(F)cc1)CS(=O)(=O)C2,-10%
O=C(Nc1nccs1)c1ccc(F)c(S(=O)(=O)N2CCOCC2)c1,-8%
O=C(NC1=NCCS1)c1ccncc1,13%
CC(C)(C)NC(=O)COC(=O)CNC(=O)c1cc(Cl)cc([N+](=O)[O-])c1,-5%
CCc1ccc(NC(=O)C(=O)N/N=C(\C)CC(=O)NCc2ccc(Cl)cc2)cc1,-28%
O=C(NC(=S)N1CCN(c2ccc([N+](=O)[O-])cc2)CC1)c1ccccc1,-5%
Cc1nn(CC(=O)NCc2cccc3ccccc23)c(=O)c2ccccc12,?
COc1cccc(N2CCN(c3nc(C)cc(C)c3C#N)CC2)c1,8%
Cc1ccc(C(=O)COC(=O)C(Cc2c[nH]c3ccccc23)NC(=O)c2ccc(Br)cc2)cc1 (stereo unspecified),6%
O=C(NCCCn1ccnc1)c1ccccc1Br,-13%
CCc1cccc(OCCCN2C(=O)NC(C)(C)C2=O)c1,-13%
CCn1cc(CCC(=O)O)c(C)n1,-14%
Cc1cc(C(=O)N/N=C/C=C/c2ccccc2)c(C)o1,-12%
COc1ccc(-c2cc3ccc(OC(C)C(=O)O)cc3oc2=O)cc1 (stereo unspecified),-3%

# Structures listed so far with a nitro group on carbon:
SMILES,VDR inhibitor
O=[N+]([O-])c1ccc(/C=N/Nc2ccnc3cc(Cl)ccc23)o1,10%
Cc1cc(C(=O)N2CCC(Cc3ccccc3)CC2)ccc1[N+](=O)[O-],-15%
COc1cccc(/C=N/Nc2ccc([N+](=O)[O-])cn2)c1O,4%
O=C(NCCCNc1ccc(C(F)(F)F)cc1[N+](=O)[O-])c1ccc(F)cc1,-24%
O=[N+]([O-])c1cccnc1N1CCN(c2ccccc2F)CC1,-2%
CC(C)(C)NC(=O)COC(=O)CNC(=O)c1cc(Cl)cc([N+](=O)[O-])c1,-5%
O=C(NC(=S)N1CCN(c2ccc([N+](=O)[O-])cc2)CC1)c1ccccc1,-5%

# Looked up by compound from the entries so far (five):
SMILES,VDR inhibitor
COc1ccc(-c2csc3nc(-c4ccc(F)cc4)oc(=O)c23)cc1,9%
CCc1ccc(C2CC(=O)c3c([nH]c(C(=O)OCCOc4ccccc4)c3C)C2)cc1 (stereo unspecified),-25%
O=C(Nc1nccs1)c1ccc(F)c(S(=O)(=O)N2CCOCC2)c1,-8%
COc1cccc(CC(=O)Nc2cc(S(=O)(=O)N3CCOCC3)ccc2OC)c1,14%
Cc1ccc[n+](-c2[nH]c(=O)sc2/C=N/N=C(\[O-])CCn2c3ccccc3c3ccccc32)c1,-5%
